Compound activity as filed in PubChem BioAssay.
MT1-MMP act inh – MT1-MMP (human) activation inhibition; P50281; HT1080 RFP-PRO-GFP cells, GFP/RFP ratio fluorescence, overnight; percent of plate control window, DMSO zero; GFP/RFP ratio change, % at 20 µM; 360,000 compounds, 0.061% hits; AID 651647;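 active means GFP/RFP ratio change of at least 30% with cell ATP level not reduced by more than half and red fluorescence within 50% of control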; further: strong numbers were not always called active
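Assay system – RFP-PRO-GFP reporter HT1080 cells · Compound dosing – single dose of 20 µM compound, 1% DMSO final · Incubation – overnight compound exposure at 37 °C · Measure – GFP/RFP fluorescence ratio · Benchmarks – DMSO wells and RFP-L50D-GFP cells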
Rce1 inh – inhibitors of yeast Ras-converting enzyme; Q03530; yeast membranes, quenched prenylated peptide cleavage fluorescence; calls only; 290,000 compounds, 0.27% hits; AID 2563;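 active means fall in fluorescence gain of 50% or more versus controls, with final raw signal at or below 3038400; inconclusive means same 50% fall but final raw signal above 3038400; inactive means fall in fluorescence gain under 50%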;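 further: plate controls were neutral control wells for no effect and wells lacking membranes for full effect; tested at 10 µM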
Target sequence (Q03530 whole entry, looked up): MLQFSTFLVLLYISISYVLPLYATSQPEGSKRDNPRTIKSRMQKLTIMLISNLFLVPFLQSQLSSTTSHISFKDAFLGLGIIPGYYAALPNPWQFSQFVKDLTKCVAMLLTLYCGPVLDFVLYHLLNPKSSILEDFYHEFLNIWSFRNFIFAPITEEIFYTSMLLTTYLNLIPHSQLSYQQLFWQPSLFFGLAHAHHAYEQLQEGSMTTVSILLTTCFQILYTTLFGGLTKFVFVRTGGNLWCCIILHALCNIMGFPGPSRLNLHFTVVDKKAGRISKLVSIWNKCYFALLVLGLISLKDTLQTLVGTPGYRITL
CSC inhib – cancer stem cell inhibition; 300,000 compounds, 1.1% hits; inhibition, % at 7.5 µM; AID 2717; cancer stem cell-like cells viability, luminescence;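 active means mean at 75% or more and at least half the replicates too; inconclusive means mean and replicates disagree; tested in HMLE shEcad cells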;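 further: 0% = median of negative and 100% = median of positive control wells; the first replicate is given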
Yeast UUG start – alters start codon recognition fidelity in yeast; 350,000 compounds, 0.13% hits; activity score, % at 18.7 µM; S. cerevisiae UUG-firefly luciferase reporter, luminescence/redox ratio;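 active means replicate mean at a twofold rise or more, about +100% in these data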;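 further: firefly luciferase made from a UUG start codon reports start codon fidelity; reporter light over untreated wells divided by growth signal over untreated wells; some hits fall short of that in this replicate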
HIV Env fusion – inhibitors of HIV Env-mediated cell fusion; HeLa-JRFL Env/CEM21 cell fusion, luciferase; inhibition, % at 12.3 µM; 360,000 compounds, 1.1% hits;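 active means mean replicate inhibition score of at least 50 and every replicate individually at or above 50; inconclusive means only one of the two criteria met; inactive means mean below 50 and not all replicates reaching 50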;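 further: 0% = plate neutral controls and 100% = maraviroc near 300 nM; one replicate is shown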
eIF4H FP inh – inhibitors of RNA binding by human eIF4H; 290,000 compounds, 0.94% hits; Q15056; eIF4H fluorescence polarization binding assay; inhibition, % at 35 µM;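 active means 50% or more with normal probe brightness, or confirmed in later tests; inconclusive means above 50% with abnormal brightness, or retests that disagree; inactive means below 50% or failed in later tests; about a fifth of its hits are not listed in these tables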;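 further: calls also rest on retests at 20 µM and on dose response follow-up; 0% = protein and probe with vehicle and 100% = probe without protein; strong numbers were not always called active; many hits fall short of the cut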
PABP FP inh – blocks human PABP binding to poly(A) RNA; P11940; fluorescence polarization; inhibition, % at 35 µM; 290,000 compounds, 1% hits; AID 2014;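 active means 50% or more with normal probe brightness, or confirmed in later tests; inconclusive means above 50% with abnormal brightness, or retests that disagree; inactive means below 50% or failed in later tests; about a fifth of its hits are not listed in these tables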;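 further: calls also rest on retests at 20 µM and on dose response follow-up; controls were probe without protein and protein plus probe with vehicle; some compounds called inactive have numbers as strong as hits; many hits fall short of the cut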
Target sequence (P11940 whole entry, looked up): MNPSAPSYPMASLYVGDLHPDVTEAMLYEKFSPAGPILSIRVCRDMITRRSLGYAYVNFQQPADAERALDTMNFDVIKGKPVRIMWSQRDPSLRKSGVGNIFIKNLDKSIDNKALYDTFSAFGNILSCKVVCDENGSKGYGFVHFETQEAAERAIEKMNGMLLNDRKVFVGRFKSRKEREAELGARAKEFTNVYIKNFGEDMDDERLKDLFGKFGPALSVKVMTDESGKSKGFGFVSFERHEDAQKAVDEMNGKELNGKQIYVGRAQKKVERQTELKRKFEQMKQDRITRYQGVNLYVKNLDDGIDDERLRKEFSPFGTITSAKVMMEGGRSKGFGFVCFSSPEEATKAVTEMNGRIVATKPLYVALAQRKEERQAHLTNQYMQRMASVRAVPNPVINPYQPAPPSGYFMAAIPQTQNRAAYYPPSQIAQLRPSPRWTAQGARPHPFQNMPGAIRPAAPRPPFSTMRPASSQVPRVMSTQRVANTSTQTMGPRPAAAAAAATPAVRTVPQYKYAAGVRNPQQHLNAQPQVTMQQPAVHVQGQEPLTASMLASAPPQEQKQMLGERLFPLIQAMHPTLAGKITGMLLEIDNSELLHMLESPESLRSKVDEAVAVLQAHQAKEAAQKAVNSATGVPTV
eIF4H FP inh retest – second read-out of eIF4H FP inh, no call of its own (marks repeat the call); inhibition, %; compound at 20 µM; confirmation average;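 mean of two retest wells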
PABP FP inh retest – recorded beside PABP FP inh, whose call it bears; inhibition, %; compound at 20 µM; confirmation repeats;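 mean of two retest wells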
MT1-MMP act inh RFP – recorded beside MT1-MMP act inh, whose call it bears; RFP signal change, %; measured here: RFP expression control read;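 0 = vehicle wells; hits needed this value within 50% of zero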
Active calls of the source: *; i = inactive; ? = inconclusive; · = not tested or not shown.

SMILES	MT1-MMP act inh	MT1-MMP act inh RFP	Rce1 inh	CSC inhib	Yeast UUG start	HIV Env fusion	eIF4H FP inh	PABP FP inh	others
COc1ccc(CN(C)C(=O)c2ccc3ccccc3n2)cc1F	1	0	i	0	-1	3	7	2
CCOc1ccc(N2C(=O)CC(Sc3nc(C)cc(C)n3)C2=O)cc1 (stereo not given)	1	1	i	-18	-13	·	-5	1
C[C@]12c3[nH]c4ccc(Cl)cc4c3CCN1C(=O)[C@@H](CC(=O)NCCC1=CCCCC1)C[C@@H]2C(=O)N1CCCCC1	-16	-27	·	·	-11	-12	·	·
CCOCCCNC(=O)C1(O)c2cc(Br)ccc2NC(=O)N1c1ccc(C)c(C)c1 (stereo not given)	0	4	i	7	-14	-20	5	0
Cc1cccc(C(=O)N2CCN(S(=O)(=O)c3ccc4c(c3)OCCCO4)CC2)c1[N+](=O)[O-]	-2	-8	i	-3	0	9	-5	5
Cc1nc2ccc(NC(=O)N(C(C)C)C(C)C)cc2s1	2	0	i	-11	-14	-53	4	-6
CCCOC(=O)C1=C(C)NC2=C(C(=O)CCC2)C1c1ccc(N(C)C)cc1 (stereo not given)	-6	-2	i	-8	-12	·	-11	1
NC(=O)CSCc1cccc(Br)c1	0	-3	·	-19	-24	-108	-2	3
Cc1cc(NC(=O)CCC(=O)N(CC(=O)NC2CCCC2)Cc2ccc3c(c2)OCO3)no1	-3	-2	i	3	·	-1	-1	1
CCC(C)Sc1nnc(CSc2nc(C)cc(C)n2)n1C (stereo not given)	4	2	i	5	·	-7	-5	3
CN(C)C(=O)CCc1ccc2c3c([nH]c2c1)[C@]1(CCC2CCCC2)[C@@H](C(=O)N2CCOCC2)C[C@H](CC(=O)NCc2cccc(C(F)(F)F)c2)C(=O)N1CC3	-4	-12	·	·	-15	8	·	·
COc1ccc(-c2c(-c3cccc(C)c3)oc3ccc(-c4ccc5c(c4)OCO5)cc23)cn1	5	-2	i	27	-2	8	·	·
CC1=C(C(N)=O)C(c2cccs2)NC(=S)N1 (stereo not given)	0	0	i	-5	·	-5	4	-5
CCn1c(CC(=O)Nc2ccc(C)cc2)nnc1SCC(=O)N1CCOCC1	0	4	i	-2	-18	8	-2	-3
CCc1ccccc1NC(=S)N(Cc1ccc(C(=O)O)cc1)Cc1ccc(OC)c(OC)c1	-3	3	i	-14	-17	13	-5	9
CCC(=O)Nc1cc(-c2nn3c(C)nnc3s2)ccc1C	4	6	i	-7	-8	-74	-8	-7
O=C(Cn1c(=O)oc2cc(S(=O)(=O)N3CCCCC3)ccc21)N1CCCCC1	0	2	i	-8	0	-4	1	4
Cc1ccc(NC(=O)NC2=NN(c3ccccc3)C(=O)/C2=C2/CCCN2C)cc1	2	-4	i	0	-15	-2	-6	6
CC1(C)CC(=O)C(C=NCC2CCN(C(=O)Nc3ccc(Cl)c(Cl)c3)CC2)=C(O)C1	6	-7	i	-12	-6	·	0	-7
OC(C#CCN1CCCC1)(c1ccccc1)c1cccc(F)c1 (stereo not given)	8	3	i	-14	·	14	4	4
CCn1nnc(-c2ccccc2NC(=O)c2ccc(-n3cnnn3)cc2)n1	4	0	i	13	-14	·	11	-1
c1ccc(Nc2ncnc3sccc23)cc1	1	-2	i	·	-9	-18	-11	8
CNC(=O)C(=O)NCC1OCCN1S(=O)(=O)c1ccc(C)cc1 (stereo not given)	0	2	i	-14	-12	3	4	-7
Cc1ccc(N2C(=O)N(CC(=O)N3CCOCC3)C(=O)C2C)cc1 (stereo not given)	3	3	i	4	-4	-20	0	11
S=c1[nH]nc(-c2cc(-c3ccccc3)n[nH]2)n1/N=C/c1ccccc1	7	-2	i	-11	-7	-17	5	0
COc1c([N+](=O)[O-])c(=O)oc2ccccc12	6	8	i	0	-22	·	0	-5
CCCN1CCC(=O)N([C@H](CO)CC(C)C)CC1	0	0	i	·	4	-4	-2	-4
CCN(CC)S(=O)(=O)c1cc(NC(=O)CNc2cccc(S(=O)(=O)N3CCCC3)c2)ccc1C	4	-30	i	-4	·	·	·	·
CCN(C(=O)c1sc(N)c(C#N)c1C)C1CCCCC1	-2	-3	i	-16	0	·	-2	-5
O=C1Cc2ccccc2C(c2ccc(Cl)cc2)N1 (stereo not given)	3	1	i	17	-7	24	0	-6
CCc1nc2ccc(C(=O)Nc3ccc4c(c3)OCO4)cc2nc1CC	0	3	i	1	3	-4	-2	11
CN(C)Cc1c(O)ccc2c1O/C(=C\C=C\c1ccccc1)C2=O	-44	-8	i	51	8	-47	?	?
Cc1cccnc1NC1(C(F)(F)F)N=C(c2ccccc2)NC1=O (stereo not given)	6	1	i	-8	1	-36	-1	-6
CCC(C)NS(=O)(=O)c1ccc(S(=O)(=O)N(CCc2ccc(OC)c(OC)c2)Cc2cccs2)cc1 (stereo not given)	-9	-27	i	19	·	48	2	23
CSc1ncccc1C(=O)OCc1ccccc1	2	0	i	0	-12	·	3	2
COc1ccc(-c2cn3cc(Cl)ccc3n2)cc1OC	14	6	i	-6	-14	·	3	21
O=C(O)c1ccc(CSCc2c(F)cccc2Cl)o1	3	8	i	-9	-15	-7	1	-3
Cc1ccc(-n2c(=O)c3c(n4cnnc24)-c2ccccc2CC32CCCCC2)cc1	-3	-1	i	12	-13	4	-3	1
COc1cscc1C(N)=O	1	0	i	-3	-5	-8	-12	-15
CCOC(=O)CCc1c(C)nc2cc(C3CCCN(C(=O)OC(C)(C)C)C3)[nH]n2c1=O (stereo not given)	-6	-3	·	1	-6	·	-5	6
NC(=O)C1CN(S(=O)(=O)c2ccc(Cl)cc2F)c2ccccc2O1 (stereo not given)	-1	-1	i	3	-2	11	-5	6
Cc1cccc(OCC(=O)NCC(=O)N/N=C/c2ccc(N(C)C)cc2)c1	-2	2	i	4	-5	-9	-7	-12
CCOC(=O)Cc1c[nH]c2ccccc12	-5	0	i	-1	-14	-28	-1	0
CCOC(=O)c1c(-c2ccccc2)csc1NC(=O)c1cc(S(=O)(=O)N2CCOCC2)ccc1C	-4	-9	i	28	·	·	-11	-14
COc1ccc(N2CCN(CCCNC(=O)c3ccc(CS(=O)(=O)c4ccc(Cl)cc4)o3)CC2)cc1	2	1	i	-1	-1	14	10	-4
CCCS(=O)(=O)N1CCCC(C(=O)NCCCOCC)C1 (stereo not given)	-2	-3	i	-26	-25	·	-7	-1
O=C(/C=C/[C@H]1O[C@@H](n2cnc3c(NC(=O)c4ccccc4)ncnc32)[C@H](O)[C@@H]1O)NC1CCCCC1	0	0	·	·	-7	-3	·	·
O=C(O)COc1ccccc1/C=N/NC(=O)c1cc(-c2ccccc2)nc2ccccc12	1	-2	i	-5	-10	13	-1	12
CC(c1ccon1)N(C)C(=O)c1ccc(OC2CCN(C(=O)C3CC3)CC2)cc1 (stereo not given)	-2	0	i	1	·	1	-5	-4
CCc1nnc(NC(=O)CCC2CCCCC2)s1	1	-2	i	-5	·	-8	·	·
CCN(CC)Cc1c(C(=O)N/N=C/c2c(Cl)cccc2Cl)nnn1-c1nonc1N	-3	-5	i	·	11	10	5	5
NC(=O)c1oc2ccccc2c1NC(=O)C1CC(=O)N(c2ccccc2)C1 (stereo not given)	3	5	i	-2	-6	20	·	·
CCCCOCCOC(=O)C1OC1(C)c1ccccc1 (stereo not given)	3	10	·	·	9	-3	·	·
CC(C)(C)Cc1c(C2CCCCC2)nc2ccc(Cl)cn12	-4	-3	·	·	-10	32	·	·
CCCC(=O)Nc1c2c(nn1-c1ccc(OC)cc1)CS(=O)C2 (stereo not given)	-3	2	i	-20	-17	·	-3	-9
CC1(C)CC(NC(=O)C2CCN(S(=O)(=O)c3ccc(F)cc3)CC2)CC(C)(C)N1	-3	0	i	-13	-22	0	10	-3
S=C(Nc1ccccc1)N1CCCCC1	3	3	i	-10	-13	-52	4	-9
Cc1ccc2cc(CN(C)S(C)(=O)=O)c(=O)[nH]c2c1	1	3	i	-8	·	-6	2	-10
CCCCCc1c(C)nc(N2CCN(Cc3ccc4c(c3)OCO4)CC2)[nH]c1=O	2	-2	i	-5	-2	14	0	0
CCCC(=O)N(c1ccc(C(=O)O)cc1)c1nc(-c2ccccc2)c(C)s1	-2	-1	i	-1	-17	5	14	3

By substructure, the compounds so far containing a nitro group on carbon (2)
SMILES	MT1-MMP act inh	MT1-MMP act inh RFP	Rce1 inh	CSC inhib	Yeast UUG start	HIV Env fusion	eIF4H FP inh	PABP FP inh	others
Cc1cccc(C(=O)N2CCN(S(=O)(=O)c3ccc4c(c3)OCCCO4)CC2)c1[N+](=O)[O-]	-2	-8	i	-3	0	9	-5	5
COc1c([N+](=O)[O-])c(=O)oc2ccccc12	6	8	i	0	-22	·	0	-5

Nothing new here: two of the compounds above.
SMILES	MT1-MMP act inh	MT1-MMP act inh RFP	Rce1 inh	CSC inhib	Yeast UUG start	HIV Env fusion	eIF4H FP inh	PABP FP inh	others
CCCC(=O)Nc1c2c(nn1-c1ccc(OC)cc1)CS(=O)C2 (stereo not given)	-3	2	i	-20	-17	·	-3	-9
CC1(C)CC(NC(=O)C2CCN(S(=O)(=O)c3ccc(F)cc3)CC2)CC(C)(C)N1	-3	0	i	-13	-22	0	10	-3

(list continues)
SMILES	MT1-MMP act inh	MT1-MMP act inh RFP	Rce1 inh	CSC inhib	Yeast UUG start	HIV Env fusion	eIF4H FP inh	PABP FP inh	others
Cn1ccnc1SCC(=O)NC1(C#N)CCCCC1	0	4	i	-10	·	3	·	·
CCc1nn(CC(=O)NC2CCN(Cc3ccccc3)CC2)c(=O)c2cc3cc(F)ccc3n12	1	-1	i	5	-5	-10	-14	0
Cc1ccc(-n2[nH]c(C)c(C=Nc3ccc(S(=O)(=O)N4CCOCC4)cc3)c2=O)c(C)c1	·	·	i	6	·	20	-6	-3
COc1cccc2cc(-c3csc(NC(=O)CCC(=O)NCCCN4CCC(C)CC4)n3)c(=O)oc12	3	0	i	33	·	-90	-4	-5
O=C(Cc1ccccc1)c1c[nH]c(C(=O)NC2CCCC2)c1	-5	-1	i	-1	·	4	6	5
COc1ccc(C2CC(=O)N3CN(c4ccc(C)c(Cl)c4)CSC3=C2C#N)cc1OC (stereo not given)	-9	-1	i	-9	-27	·	24	63	eIF4H FP inh retest=26;PABP FP inh retest=43
Nc1nc(SCC(=O)N2CCOCC2)n[nH]1	0	2	i	-7	·	-4	-8	3
O=C(Nc1nnc([C@@H]2C[C@H](O)[C@@H](CO)O2)s1)c1ccc(Oc2ccccc2)cc1	-1	2	·	·	12	-12	·	·
COc1ccc(/C=C/C(=O)N2CCCc3ccccc32)cc1	-5	-1	i	15	·	-1	-4	-10
Cc1c(Br)c([N+](=O)[O-])nn1CCCC(=O)NC(C)c1ccccc1 (stereo not given)	-2	-3	i	-13	·	7	-6	-7
Cc1ccc(NC(=O)Nc2ccccc2)nc1	-1	-3	i	6	·	-43	·	·
COCCN(C(=O)COC(=O)Cc1coc2cc(C)ccc12)c1c(N)n(Cc2ccccc2)c(=O)[nH]c1=O	-1	0	i	-4	2	-8	·	·
COC(=O)c1ccccc1NC(=O)CSc1nc2ncccc2[nH]1	-10	-3	i	-7	-11	16	-4	3
CCN(C(=O)c1ccc2c(=O)n3c(nc2c1)CCCCC3)c1cc(OC)ccc1OC	2	5	i	19	-5	1	-2	2
CCOC(=O)c1c(NC(=O)C2c3ccccc3Oc3ccccc32)sc(C(C)=O)c1C	-8	-14	i	·	-1	·	-16	1
O=C1OC(c2ccc(F)cc2)=C/C1=C\c1ccc([N+](=O)[O-])o1	·	·	i	50	·	·	?	-6
O=C(O)C/C(=C\c1ccc(Cl)cc1)c1nc2ccccc2o1	4	4	i	-7	-8	10	4	0
